# Bioassay records (PubChem BioAssay)
# Sa ugtP lethal: growth inhibition of ugtP-null S. aureus, primary screen, RN4220 ugtP deletion, OD600; 330,000 tested, 0.54% active; 16 h; some inactives read as strong as hits; growth inhibition, % (concentration not given with the values);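 active means z-score under -3 and OD600 up to 0.15 on both plates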;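 further: plate controls were untreated wells for no effect and antibiotic for full effect; wells of about 80 µL received 100 nL stock; the first replicate is given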
# Autofluor counter: compound fluorescence in toxin protease inhibitor counterscreen; compound autofluorescence counterscreen, microsphere flow cytometry; hits give high values; fluorescence intensity (concentration not given with the values); 360,000 tested, 3.1% active; AID 624483;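 active means at least 3 SD above the mean of all compounds, about 16000 in these data; inconclusive means too few beads counted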;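 further: 100 nL of 1 mM stock went into each well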
# Sa RN4220 lethal: growth inhibition of S. aureus RN4220, primary screen, OD600. inhibition, % (test concentration not listed). 330,000 tested, 0.33% active. 16 h;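 active means z-score of -3 or lower and OD600 up to 0.18 on both plates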;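 further: plate controls were untreated cells for no effect and reference antibiotic for full effect; stock transfer was 100 nL into about 80 µL; one replicate is shown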
# BJeLR lethal: MLPCN primary cell-based screen for lethality selective to Ras in HRASV12 cells; 300,000 tested, 0.17% active; BJeLR (HRASV12) viability, CellTiter-Glo ATP luminescence, 48 h; reference of the scale not given here; AID 1554, 2009; inhibition, % (test concentration not listed);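 active means replicate mean above 50%; inconclusive means above 50% but judged a plate artefact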;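 further: 50 nL library stock added to about 25 µL; numbers are from one replicate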
# Mtb hypoxia inh: PubChem AID 1159583. fluorescence inhibition, % (concentration not given with the values). M. tuberculosis hypoxia-regulated fluorescent reporter, fluorescence. 300,000 tested, 0.1% active;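 active means 35 to 45% if threefold the growth effect, above 45% if 1.5-fold the growth effect; inactive means the rest, general growth blockers included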;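 further: wells of about 50 µL received 100 nL stock; 0% = vehicle wells and 100% = reference inhibitor wells; whole bacteria with a GFP reporter of the hypoxia response; strong numbers were not always called active; many hits fall short of the cut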
# PrP 5UTR inh: inhibition of PrP 5' UTR reporter expression. cell-based PrP 5' UTR mRNA reporter, plate reader. inhibition, % (concentration not given with the values). 340,000 tested, 0.35% active;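 active means every replicate at 50% or more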;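 further: 0 = median of the neutral control wells; tested in H4 reporter cells; numbers are from one replicate; inactives centre near -14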
# Mtb hypoxia inh growth: recorded beside Mtb hypoxia inh, whose call it bears; growth inhibition, %; measured here: M. tuberculosis growth (absorbance);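 0% = vehicle and 100% = reference antibiotic; read after six days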
# The depositor's hits bear a star; ? = inconclusive; . = not tested or not shown.
SMILES,Sa ugtP lethal,Autofluor counter,Sa RN4220 lethal,BJeLR lethal,Mtb hypoxia inh,Mtb hypoxia inh growth,PrP 5UTR inh
COc1ccc(C(=O)O)cc1NC(=S)NC(=O)c1ccc(-c2ccc(Cl)cc2)o1,.,4438,.,-3,.,.,-13
COc1ccc(-c2csc(/C(C#N)=C\c3ccc(O)c([N+](=O)[O-])c3)n2)cc1OC,-2,4419,18,-5,18,-1,-15
CC(C)Oc1ccc(C(=O)N(CN2CCCC2=O)c2ccc(F)cc2)cc1,-8,10644,-1.9,-9,-15,11,-7
O=C(/C=N/O)Nc1ccccc1C(=O)O,.,22836*,.,15,.,.,-34
CCN1C(=S)N[C@@H](c2cccc(F)c2)C(C(=O)OC)=C1C,.,3409,.,0,.,.,-28
COc1ccc(S(=O)(=O)N(C)Cc2ccc3c(c2)OCCO3)cc1,-3,2882,0.7,.,-5,-4,-13
Cc1cc2n(n1)C(c1cccs1)Nc1ccccc1-2 (stereo not drawn),4,4929,-0.3,2,.,.,-17
CC(=O)N1CCc2cc(S(=O)(=O)N3CCOCC3)ccc21,0,3029,0.4,-1,.,.,-30
Cc1ccccc1NC(=O)NCCc1c[nH]c2ccccc12,-2,5439,3.9,3,6,-5,-11
Oc1ccccc1-c1nc2cnccn2c1Nc1ccc2c(c1)OCCO2,2,5630,0.9,16,9,7,-27
COc1ccc(CC(=O)NCCCSc2ccccc2)cc1OC,8,6459,3.4,-1,10,3,-23
Cc1ccc2[nH]c(C(=O)N3CCN(c4cccc(Cl)c4)CC3)cc2c1,-2,3681,2.1,2,8,18,-29
Cc1ccc(NC(=S)N(C)C(c2ccccc2)c2ccccc2)cc1C,9,3917,-3.3,7,8,8,-10
CCc1ccccc1NC(=O)C1CCN(S(=O)(=O)c2ccc3c(c2)N(C(C)=O)CCO3)CC1,8,5264,1.3,5,0,6,-26
CC(OC(=O)C1=COCCO1)C(=O)Nc1cc(S(=O)(=O)N2CCCCC2)ccc1Cl (stereo not drawn),0,2775,-0.1,4,-1,14,-6
COc1ccc([N+](=O)[O-])cc1NC(=O)c1ccc(N(Cc2ccccc2C)S(C)(=O)=O)cc1,2,2420,4.3,-2,10,3,19
Cc1ccc(C2C(C#N)=C(N)SC(N)=C2C#N)cc1,7,11739,7.8,.,4,-1,-26
CCOC(=O)c1ccccc1NC(=O)CSc1ccc(-c2cccnc2)nn1,-3,3274,-1.7,.,-3,-3,-7
O=C(c1cnsn1)N1CCN(c2ccccc2)CC1,4,3245,-0.1,.,.,.,-17
Cc1ccc(-n2c(C)nc3c(cnn3-c3ccc(C)c(C)c3)c2=O)cc1C,3,5793,-1.7,-4,5,13,-18
O=C(NCCCn1ccnc1)/C(=C\c1ccccc1F)NC(=O)c1ccccc1,5,6254,0.4,-1,2,4,-3
COC(=O)c1[nH]c2cc(C)ccc2c1NC(=O)CN1CCc2cc(OC)c(OC)cc2C1,-14,2329,-2.6,3,-3,10,-3
NC(=O)C1CCN(C(=O)CCn2c(=O)oc3ccccc32)CC1,0,4506,4.8,.,-1,4,-18
COc1ccc(-c2nc(CN3CCC(C(=O)N4CCOCC4)CC3)c(C)o2)cc1OC,4,5204,2.0,0,-3,1,-12
COc1cc2[nH]cc(C(=O)NCCc3ccccc3)c(=O)c2cc1OC,11,17186*,3.3,.,-2,0,-12
COc1ccccc1NC(=S)NC(=O)C(C)C,17,4387,3.3,5,4,-3,-4
CCOC(=O)N1CCC(NC(=O)C2=CCN(S(=O)(=O)c3ccc(F)cc3)CC2)CC1,9,5161,4.2,4,-1,4,-22
CCC(=O)Nc1nnc(SCC(=O)NC2CCCC2)s1,13,5876,-1.8,-2,8,7,-8
CC(=O)Nc1cccc(NC(=O)c2cc(Cl)ccc2Cl)c1,4,3463,4.9,0,6,13,-24
COc1ccccc1NC(=O)CCCc1nc(-c2ccc(OC)c(OC)c2)no1,0,4479,1.9,1,-4,-2,-15
CN(C)S(=O)(=O)c1ccc2c(c1)C(=NO)c1cc(S(=O)(=O)N(C)C)ccc1-2,2,3801,-0.2,13,-1,1,-7
CC1CCCCC12NC(=O)N(CC(=O)N1CCN(S(=O)(=O)c3cccs3)CC1)C2=O (stereo not drawn),4,5811,3.6,.,5,6,-10
CC(NC(=O)C(C)(C)C)C(c1cccs1)N1CCOCC1 (stereo not drawn),2,5040,2.5,6,2,-6,-16
COc1ccc2c(c1)nc(CN1CCN(CCO)CC1)n2C,10,3492,0.1,-17,4,-4,-6
COc1ccc(C=Nn2c(SC)nnc(C(C)(C)C)c2=O)cc1,-3,.,-0.4,.,-20,-8,.
Cc1cc(NC(=O)c2cccc(S(=O)(=O)N3CCOCC3)c2)c2ccccc2n1,-4,3261,-4.8,0,5,17,-17
COc1ccc2cc(CCNC(=O)c3ccc(Br)o3)c(=O)[nH]c2c1,10,5213,3.0,0,8,7,-10
COc1ccc(-c2cc3ccccc3oc2=O)cc1NC(=O)c1cccnc1,7,8229,7.5,-4,3,-1,-15
CC(=O)Nc1ccc(C(=O)NC(C)c2ccc(-n3ccnc3)cc2)cc1 (stereo not drawn),3,5888,-0.8,-1,5,10,0
COC(=O)c1sc(NN=Cc2ccc(C(C)C)cc2)nc1C,-24,.,-4.4,.,-8,3,.
Cc1ccc(C(=O)CC2(O)C(=O)Nc3ccccc32)s1 (stereo not drawn),-6,9893,-0.8,11,-6,3,-12
O=C1c2ccccc2NC2CCCCC12 (stereo not drawn),2,12972,0.7,-1,15,0,-14
O=C(Cn1c(-c2ccccc2)noc1=O)Nc1ccc(N2CCCCCC2)cc1,10,25078*,-5.8,-2,2,6,-8
CCOC(=O)c1c(C)[nH]c(C(=O)NCCc2ccc(OC)c(OC)c2)c1C,-3,3713,1.0,7,12,8,-13
C=CCOc1ccc(C(=O)CC)cc1OC,0,2503,0.4,-7,-13,-15,-12
O=[N+]([O-])c1ccc(-c2ccc(C=Nn3cnnc3)o2)c(Br)c1,2,.,5.4,.,-2,0,.
O=C(CCc1nc2ccccc2[nH]1)Nc1ccccc1,1,4557,0.3,-8,.,.,-17
COc1ccc(CCN=C(N)NS(=O)(=O)c2ccc(C)cc2)cc1,12,1963,5.3,-19,5,-1,2

# One compound at a time, as listed above. Values in the order: Sa ugtP lethal, Autofluor counter, Sa RN4220 lethal, BJeLR lethal, Mtb hypoxia inh, Mtb hypoxia inh growth, PrP 5UTR inh
# O=C(Cn1c(-c2ccccc2)noc1=O)Nc1ccc(N2CCCCCC2)cc1 as listed: 10, 25078*, -5.8, -2, 2, 6, -8
# Cc1ccc(C(=O)CC2(O)C(=O)Nc3ccccc32)s1 (stereo not drawn) as listed: -6, 9893, -0.8, 11, -6, 3, -12

# More records
SMILES,Sa ugtP lethal,Autofluor counter,Sa RN4220 lethal,BJeLR lethal,Mtb hypoxia inh,Mtb hypoxia inh growth,PrP 5UTR inh
O=C(O)CCC(=O)Nc1ccc(OCC(=O)O)cc1,-4,?,-1.5,4,-7,-8,-10
CCCCSc1nnc([C@@H]2CCCN2C(=O)OC(C)(C)C)o1,-6,2393,-0.8,-5,.,.,-15
CCOc1ccc(-c2nnc3sc(-c4ccccc4OC)nn23)cc1,-11,8923,6.6,.,6,11,-65
O=C(O)CCn1cc(/C=C2\SC(=S)NC2=O)c(-c2ccccc2)n1,.,4550,.,16,.,.,-23
COc1ccc(NC(=O)Nc2ccc(OC)c(OC)c2)c([N+](=O)[O-])c1,1,8798,3.5,-5,16,6,-4
CCOC(=O)/C(C#N)=C/Nc1cc(F)ccc1C,6,.,2.0,1,-2,-1,-23
CC1CCCCN1S(=O)(=O)c1ccccc1[N+](=O)[O-] (stereo not drawn),3,8338,6.5,-5,5,1,-32
Cc1cc(OCC(=O)NCc2cccnc2)c2c3c(c(=O)oc2c1)CCCC3,5,4611,4.4,-4,12,4,-4
Cc1cc(C)n(CC(=O)n2c3ccccc3c3ccccc32)n1,-8,2680,1.8,2,3,3,-15
CS(=O)(=O)Nc1cccc(C2=NN(S(=O)(=O)c3ccccc3)C(c3cccs3)C2)c1 (stereo not drawn),14,8174,12,8,16,3,-18
O=C(O)c1ccc(/C=C2\SC(=S)N(NC(=O)c3ccccc3)C2=O)cc1,2,3312,9.8,2,0,-3,-20
Cc1ccc(N2CC(C(=O)OCc3nnc(-c4ccccc4)o3)CC2=O)cc1 (stereo not drawn),-1,6042,8.1,-1,-1,-4,-14

# 3 entries out of the list, arranged by number of heavy atoms, smallest number first:
SMILES,Sa ugtP lethal,Autofluor counter,Sa RN4220 lethal,BJeLR lethal,Mtb hypoxia inh,Mtb hypoxia inh growth,PrP 5UTR inh
O=C1c2ccccc2NC2CCCCC12 (stereo not drawn),2,12972,0.7,-1,15,0,-14
C=CCOc1ccc(C(=O)CC)cc1OC,0,2503,0.4,-7,-13,-15,-12
O=C(CCc1nc2ccccc2[nH]1)Nc1ccccc1,1,4557,0.3,-8,.,.,-17

# Next section
SMILES,Sa ugtP lethal,Autofluor counter,Sa RN4220 lethal,BJeLR lethal,Mtb hypoxia inh,Mtb hypoxia inh growth,PrP 5UTR inh
COC(=O)c1cc(=O)n(C2CC2)c(=NC2CC2)s1,5,16100,3.7,-25,0,-8,8
CC1CCCCN1c1nc2nonc2nc1N1CCCCC1C (stereo not drawn),1,3527,6.8,-10,16,6,-21
CCCCNC(=O)c1ccc(CS(=O)(=O)c2ccc(OC)cc2)o1,8,6257,0.3,-6,.,.,1
CCC(=O)N1CCN(c2ccc(Cl)cc2NC(=S)NC(=O)c2ccco2)CC1,3,5339,2.4,3,6,8,-18
COc1ccc(C2SCC(=O)N2c2ccccc2)cc1 (stereo not drawn),5,3041,-2.5,13,6,-1,-20
Cc1cc(NS(=O)(=O)c2ccc(Nc3nc(-c4ccc(O)cc4)cs3)cc2)no1,-2,2319,6.2,-2,0,4,-1
CCN=c1scc(C)n1N=Cc1ccsc1,11,.,4.6,.,21,15,.
COc1ccc(-n2ncc3c2CC(C)(C)CC3NC(=O)Cc2nonc2C)cc1 (stereo not drawn),6,4169,2.7,5,6,-3,0
COc1ccc(NC(=O)Nc2c(C)noc2-c2ccccc2)cc1,2,4447,1.2,1,6,18,-11
CC1CCCN(c2ncnc3c2cnn3-c2ccccc2)C1 (stereo not drawn),12,5522,5.6,-13,10,10,33
CC(Cc1ccco1)NC(=O)c1ccc(C(F)(F)F)cc1 (stereo not drawn),0,3572,-0.6,1,.,.,-60
CC(C)c1onc(C(=O)N2CCC(C(N)=O)CC2)c1[N+](=O)[O-],2,4789,2.2,0,-2,8,4
O=S1(=O)C=C(SCc2ccccc2)Nc2ccccc21,9,2560,5.9,-2,.,.,-25
CCOc1ccc(NC(=O)NCc2cccnc2)cc1,-4,2492,5.3,4,-4,2,-18
CC1CCN(c2ccc3nnc(CCC(=O)Nc4ccc(F)c(F)c4)n3n2)CC1,-2,5725,3.7,1,-3,-4,3
COc1ccc(N(CC(=O)NC2CCCC2)C(=O)c2csnn2)cc1,2,4357,1.8,-6,7,18,-24
Cc1ccc(NC(=S)NCc2ccc3[nH]c4c(c3c2)CCCC4)cc1,-14,5020,-20,5,2,7,-12
O=C1/C(=C/c2cccnc2)SC(=S)N1CC1CCCO1 (stereo not drawn),-2,4377,5.9,2,7,13,-18
CN1CCCN(C(=O)c2cc(-c3ccc(Cl)c(Cl)c3Cl)nc3ccccc23)CC1,21,3998,1.6,7,13,14,-10
COC(=O)c1ccc(NC(=O)c2cc(Cl)ccc2OC)cc1,6,3398,7.2,-3,2,-2,-4
O=C(c1cccs1)N1CCN(c2nc3ccccc3s2)CC1,0,4336,0.9,4,5,9,-21
COc1ccccc1OCCn1c(C(C)O)nc2ccccc21 (stereo not drawn),2,3815,0.7,-3,11,19,-8
CCc1cccc(NC(=O)CCNC(=O)Cn2ccc3ccccc3c2=O)c1,2,4083,4.2,1,3,1,-16

# Five neighbouring entries out of the list so far, for reference:
SMILES,Sa ugtP lethal,Autofluor counter,Sa RN4220 lethal,BJeLR lethal,Mtb hypoxia inh,Mtb hypoxia inh growth,PrP 5UTR inh
O=S1(=O)C=C(SCc2ccccc2)Nc2ccccc21,9,2560,5.9,-2,.,.,-25
CCOc1ccc(NC(=O)NCc2cccnc2)cc1,-4,2492,5.3,4,-4,2,-18
CC1CCN(c2ccc3nnc(CCC(=O)Nc4ccc(F)c(F)c4)n3n2)CC1,-2,5725,3.7,1,-3,-4,3
COc1ccc(N(CC(=O)NC2CCCC2)C(=O)c2csnn2)cc1,2,4357,1.8,-6,7,18,-24
Cc1ccc(NC(=S)NCc2ccc3[nH]c4c(c3c2)CCCC4)cc1,-14,5020,-20,5,2,7,-12
